# Sa helicase inh: S. aureus DNA helicase inhibition. inhibition, %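 (tested at about 80 µM)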. hit rate 0.05% among 120,000. purified S. aureus helicase, fluorescence unwinding assay; about half of the hits fall short of the stated cut;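 active = both duplicates at 50% or more, or one of them with a favoured structure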;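 note: 0% = mean of negative control wells and 100% = mean of positive control wells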
# MgrA DNA FP: modulators of Staphylococcus aureus MgrA DNA binding; fluorescence polarization; inhibition, %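 (about 10 µg/mL by stock and volumes)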; hit rate 0.13% among 84,000; AID 602314;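 active = above 50% in either of two replicates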;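 note: 0% = protein plus DNA without compound and 100% = DNA alone without protein; higher means less MgrA bound to DNA so lower polarization; one replicate is shown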
# An asterisk follows results filed as active; . = not tested or not shown; & = joins results of further samples.
Compound	Sa helicase inh	MgrA DNA FP
O=C(N/N=C/c1ccccc1O)c1c[nH]c2ccccc12	-6.0	.
Cc1noc(C)c1COC(=O)CN(C)S(=O)(=O)c1ccc(Cl)cc1	4.0	.
CC(C)(C)c1ccc(-c2noc(-c3ccno3)n2)cc1	.	-1.4
CCN1Cc2cccc(CNc3cc(C)cc(C)c3)c2C1	6.0	1.2
CC1CCc2c(sc3nc(-c4ccc(Cl)cc4)cn23)C1 (stereo not drawn)	-5.0	.
Cc1onc(-c2ccccc2)c1C(=O)NCc1cc(Cl)cc(Cl)c1	.	-1.9
CCN(C(=O)c1ccco1)C1C2CC3CC(C2)CC1C3 (stereo not drawn)	5.0	-2.5
CC(=O)c1ccc(Sc2ccccc2)cc1	.	4.3
CC(=O)Oc1cccc2ccc(C#N)nc12	4.0	2.0
COc1ccc(/C=N/NC(=S)NCC2CCCO2)cc1 (stereo not drawn)	.	-1.2

# Other compounds
Compound	Sa helicase inh	MgrA DNA FP
Cc1onc(-c2c(F)cccc2Cl)c1/C(N)=N/O	.	-0.9
O=C1OC(c2ccccc2)=N/C1=C/c1cccs1	.	0.5
CC1CCC2[C@](C)(CO)[C@@H](O)CC[C@]2(C)[C@@]12CCC1(CCOC1)O2 (stereo partly drawn)	8.0	.
Cc1ccc(S(=O)(=O)c2ccc(N/N=C/c3c(O)n(C)c(=O)n(C)c3=O)cc2)cc1	-6.0	.
O=S(=O)(CCN1CCOCC1)c1ccc(F)cc1	-25.0	.
O=C(O)C1CCCCN1Cc1ccco1 (stereo not drawn)	-4.0	-2.0
N#CC(C(=O)N1CCCCC1)C(CC(=O)c1ccccc1)c1cccc(Br)c1 (stereo not drawn)	-4.0	0.4
O=C(CSC1=NCCc2ccccc21)Nc1ccc(F)cc1F	.	-4.7
CSc1nsc(SC)c1C(=O)NC(=O)Nc1cccnc1	.	1.4
O=C(CSC1=NCCS1)N1CCc2c([nH]c3ccccc23)C1C(F)(F)F (stereo not drawn)	.	-0.4

# (list continues)
Compound	Sa helicase inh	MgrA DNA FP
CC(C)(C)OC(=O)N1CCCN(C(=O)c2cccs2)CC1	.	-2.1
Cc1cc(C)c(S(=O)(=O)N2CCCC2=O)c(C)c1	13.0	.
COc1ccc(/C=C/C(=O)Nc2ccc3c(c2)OCO3)cc1S(=O)(=O)N1CCCCC1	14.0	.
Cc1nn(CC(=O)N2CCCCC2)c(C)c1S(=O)(=O)NC(C)(C)C	-5.0	.
CCOC(=O)C(C#N)Cc1c(C)c(C)c(C)c(C)c1C (stereo not drawn)	.	0.4
O=C(c1ccco1)N1CCC(N(CCc2ccccc2)Cc2ccccc2)CC1	14.0	-0.8
COC(=O)C1=C(C)NC(=O)CC1c1ccc(C(C)C)cc1 (stereo not drawn)	.	-9.2
CC(C(=O)O)N1CCCCC1 (stereo not drawn)	4.0	-1.9
COC(=O)/C(C#N)=C/c1ccc(OC)cc1	6.0	-0.8
COc1cccc(-c2nc3cc(OC)c(OC)cc3c(=O)o2)c1	11.0	3.8

# Rewritten as labelled records: part of the list above
> O=C(c1ccco1)N1CCC(N(CCc2ccccc2)Cc2ccccc2)CC1
  Sa helicase inh = 14.0 | MgrA DNA FP = -0.8
> COc1ccc(/C=C/C(=O)Nc2ccc3c(c2)OCO3)cc1S(=O)(=O)N1CCCCC1
  Sa helicase inh = 14.0 | MgrA DNA FP = .

# Remaining list, next part
Compound	Sa helicase inh	MgrA DNA FP
COc1ccccc1C1CCN(Cc2ccc(Cl)c(Cl)c2)CC1	.	-2.9
O=C(CC1Sc2ccc(C(F)(F)F)cc2NC1=O)Nc1ccc(O)cc1 (stereo not drawn)	6.0	.
Cc1nc2ccn(Cc3cccnc3)c(=O)c2cc1C(=O)NCCCc1ccco1	5.0	.
CN(C)S(=O)(=O)c1ccc(S(=O)(=O)N2CCC3(CC2)OCCO3)cc1	18.0	0.9
CCS(=O)(=O)N1CCC(C(=O)NCc2ccc3c(c2)OCO3)CC1	13.0	.
O=C1CN=C(Nc2ccccc2Cl)N1Cc1ccccc1	3.0	-5.9
Cc1cc(-c2nc(-c3ccc(C(F)(F)F)cc3)no2)n(C)n1	.	-2.0
O=C(c1cccn1-c1ccc(F)cc1)C(F)(F)F	.	1.6
Cc1n[nH]c(C)c1NC(=O)CN(C)C(=S)NC1CC2CCC1C2 (stereo not drawn)	6.0	.
CCOc1cc(C2NS(=O)(=O)N=C3CCCN32)ccc1OCCOc1cccc(C)c1 (stereo not drawn)	3.0	.

# Continuation.
Compound	Sa helicase inh	MgrA DNA FP
O=C(NCCc1ccccc1)C1CCN(S(=O)(=O)N2CCCCC2)CC1	-8.0	0.0
CSc1ccc(NC(=O)NCCn2cnc3cccnc32)cc1	6.0	0.2
CCc1c(C)c(C#N)c2[nH]c3ccccc3n2c1=O	3.0	0.6
COc1ccc(CCNC(=O)CSc2nnc(CNC(=O)c3c(F)cccc3Cl)o2)cc1OC	32.0	.
COC(=O)c1scc2c(N3CCCCC3)cc(C(F)(F)F)nc12	.	-1.1
COCc1nnc(NC(=O)C2C(C=C(C)C)C2(C)C)s1 (stereo not drawn)	6.0	2.1
CCOC(=O)c1c(NC(=S)NCCn2cc(Br)cn2)sc2c1CCCCC2	9.0	3.8
O=C(Nc1ccc(N2CCCCC2)cc1)c1ccc2nonc2c1	.	1.1
Cc1nn(Cc2ccccc2Cl)c(C)c1C(=O)NCC(C)C	-21.0	.
CCOC(=O)c1c(-c2ccccc2)oc2ccc(OC(=O)c3ccc(Br)cc3)cc12	.	1.7

# Continuation:
Compound	Sa helicase inh	MgrA DNA FP
CCOC(=O)c1ccc(CSc2ccc(Cl)cc2)o1	-26.0	.
CC(C)(C)OC(=O)NCCNC(=O)Nc1cccc(Cl)c1Cl	.	0.7
COc1ccc(NC(=O)NCCC2=CCCCC2)cc1	-14.0	2.3
CC1Sc2ccc(S(=O)(=O)CCC(=O)N(C)Cc3ccccc3)cc2NC1=O (stereo not drawn)	-7.0	.
CCC(Sc1nc2ncccc2[nH]1)C(=O)NC1CCC(C)CC1 (stereo not drawn)	6.0	1.5
O=C(COC(=O)Cc1ccc(Cl)cc1)NCC1CCCO1 (stereo not drawn)	-16.0	-1.3
COCC(C)NC(=O)c1ccc(NS(=O)(=O)c2ccccc2)cc1 (stereo not drawn)	3.0	-3.6
O=C(Cc1cn2ccsc2n1)NCCc1ccc(F)cc1	0.0	1.7
CCc1ccc(C2NC(=O)NC(C)=C2C(=O)Nc2ccccc2)cc1 (stereo not drawn)	-3.0	.
CCN(CC)Cn1[nH]c(=O)ccc1=O	28.0	2.0

# Additional structures:
Compound	Sa helicase inh	MgrA DNA FP
O=C(N/N=C/c1cccs1)c1ccc(N2CCCC2=O)cc1	.	0.1
Cc1ccccc1OCC(=O)O/N=C(\N)c1ccncc1	22.0	.
COc1cccc(/C=N/NC(=O)c2cccc(C)c2)c1O	-3.0	7.2
Cc1ccc(C(=O)NC(C(C)C)C(C)C)cc1	-3.0	2.4
c1ccc(Nc2nc3nonc3nc2N2CCOCC2)cc1	2.0	-1.1
O=C1CC(NC2CCN(S(=O)(=O)c3ccc(Cl)cc3)CC2)C(=O)N1 (stereo not drawn)	-17.0	2.6
Cc1c(C(=O)N2CCOCC2)[nH]c2c1C(=O)CC(c1ccc(Cl)cc1)C2 (stereo not drawn)	10.0	-0.1
C=CCN1C(c2ccccc2)=CSC1/N=C/c1ccccc1 (stereo not drawn)	9.0	-1.9
COc1ccc(NC(=O)C2CCN(C(=O)/C=C/c3ccccc3)CC2)cn1	-2.0	.
Cc1c(/C=N/n2cnnc2)c2ccccn2c1C(=O)c1ccc(F)cc1	21.0	-0.9

# Other structures.
Compound	Sa helicase inh	MgrA DNA FP
CC(C)C(NC(=O)C1COc2ccccc2O1)c1nc2ccccc2[nH]1 (stereo not drawn)	12.0	.
Cc1cc(C(N)=O)c2ccccc2n1	1.0&9.0	-1.5
CCC1=Nc2cc(C(=O)NCCCN3CCN(C)CC3)ccc2Sc2ccccc21	12.0	.
O=C(O)CSCC(=O)Nc1ccccc1	2.0	-2.0
CS(=O)(=O)N(CC(=O)NCc1ccco1)c1ccccc1Br	4.0	0.5
CCS(=O)(=O)N1CCC(C(=O)Nc2nnc(-c3ccccc3)o2)CC1	9.0	.
O=S(=O)(CCN1CCN(c2ccccn2)CC1)c1ccc(F)cc1	-3.0	.
CCOC(=O)c1sc(N(Cc2ccccc2)C(=O)CN2CCN(C(C)=O)CC2)nc1C	5.0	.
Clc1ccc(C2=NN(Cc3ccccc3)CC2)s1	-9.0	.
CC(=O)Nc1ccc2oc(-c3ccc(C#N)cc3)cc(=O)c2c1	.	3.3

# The results go on:
Compound	Sa helicase inh	MgrA DNA FP
Cn1cc(NC(=O)Nc2cccnc2)c2ccccc2c1=O	-10.0	.
CC1CCN(CC(O)COc2ccccc2)CC1 (stereo not drawn)	4.0	.
Cc1ccc[n+](CC(=O)c2cccs2)c1	1.0	3.2
CC(C)OC(=O)C(C)Nc1n[nH]c(=O)[nH]c1=O (stereo not drawn)	-1.0	0.5
O=c1oc(-c2cccs2)nc2c(Br)cc(Br)cc12	.	-2.2
O=C(c1cccs1)N1CCN(c2ccccn2)CC1	9.0	1.7
Oc1cccc(/C=N/n2cnnc2)c1	21.0	.
Cc1ccccc1C(=O)N/C(=C/c1ccc(-c2cccnc2Cl)o1)C(=O)NC1CC1	5.0	-11.6
CSc1nn(-c2ccccc2)cc1/C(N)=N/O	.	-0.9
O=C(O)c1ccccc1C(=O)N1CCN(C(c2ccccc2)c2ccccc2)CC1	.	-1.9

# (more compounds)
Compound	Sa helicase inh	MgrA DNA FP
CCOC(=O)c1ccc(-c2ccc(/C=C3\Sc4ccccc4C3=O)o2)cc1	.	-1.4
CN(N)C1=NS(=O)(=O)c2ccccc21	-3.0	-2.1
O=C(Cn1nc(-c2ccccc2)ccc1=O)NCc1cccs1	6.0	-0.2
Cc1ccccc1C(=O)NC1CCN(CC(=O)N2CCCCC2C)CC1 (stereo not drawn)	-1.0	0.9
O=c1c(I)cn(Cc2ccccc2)c(=O)n1Cc1ccccc1	7.0	3.4
O=C1c2ccncc2C(=O)N1CNc1ccccc1	-1.0	.
CCN(CC)c1nc2ccccc2c(=O)s1	.	-1.2
COc1ccc(OC)c(-c2sccc2CC(=O)O)c1	-16.0	.
O=C1CC(C(=O)O)C2(CCCCC2)O1 (stereo not drawn)	2.0	.
C=C(C)c1cccc(C(C)(C)NC(=O)NCC2CCCO2)c1 (stereo not drawn)	-2.0	1.9

# The list continues.
Compound	Sa helicase inh	MgrA DNA FP
O=C(Cn1nc(C(=O)O)c2ccccc2c1=O)NC(=O)NCc1ccco1	6.0	.
COC(=O)c1ccccc1NC(=O)Cc1ccsc1	-5.0	.
Cc1ccc(-c2noc(C(C)c3ccc(CC(C)C)cc3)n2)cc1 (stereo not drawn)	.	0.5
COC(=O)c1ccccc1NC(=O)c1cc(-c2ccco2)on1	11.0	.
O=C(O)COc1ccccc1/C=N/N1CCN(Cc2ccc(Cl)cc2)CC1	-2.0	-0.6
Cc1ccc(N2C(=N)S/C(=C/c3sccc3C)C2=O)cc1C	15.0	4.0
Cc1noc2ncnc(NCCCN(Cc3ccccc3)C(C)C)c12	-26.0	.
CC(=O)N1CCC2(CC1)OC(=O)C(C)=C2C(=O)NCc1ccccc1	15.0	.
C=CCn1c(=S)sc2c(=O)n(/N=C/c3ccc(Cl)cc3Cl)c(C)nc21	.	0.8
Cc1cccc(C(=O)Nc2ccccc2C(=O)N2CCOCC2)c1	-4.0	-3.9

# (next part)
Compound	Sa helicase inh	MgrA DNA FP
O=C(NC1CCCCC1)C(C(=O)c1ccccc1)n1ccccc1=O (stereo not drawn)	9.0	-3.3
COc1ccc(OC)c(S(=O)(=O)NCc2nc(N)n(S(=O)(=O)c3cc(OC)ccc3OC)n2)c1	-13.0	.
Cc1ccc(NCc2c(C#N)c3ccccc3n2C)cc1	11.0	.
Cn1/c(=N/N=C/c2ccc(OCC(N)=O)cc2)sc2ccccc21	14.0	-4.2
CCC(C(=O)Nc1nc2nc(C)c(Cl)c(=O)n2[nH]1)c1ccccc1 (stereo not drawn)	7.0	.
O=C(CC1SC(=O)NC1=O)Nc1ccc(O)cc1 (stereo not drawn)	4.0	.
COc1ccc(NC(=O)c2c(C)oc3ccc(O)c(CN(CC(C)C)CC(C)C)c23)cc1	17.0	.
CC(=O)Nc1ccc(S(=O)(=O)N2CCN=C2SC(C)c2ccccc2)cc1 (stereo not drawn)	12.0	.
CC1CCCC(NC(=O)COC(=O)c2ccccc2C(F)(F)F)C1C (stereo not drawn)	-20.0	-1.4
CCOC(=O)c1nn(-c2ccccc2)c(C(=O)OCC)c1NC(=O)c1nn(CC)cc1Br	-1.0	.

# (more compounds)
Compound	Sa helicase inh	MgrA DNA FP
CCCN(CCC)C(=O)c1ccccc1NC(=O)c1ccccc1Cl	-9.0	.
O=C1CCCN1c1nc(-c2ccccc2)cs1	-7.0	.
O=C1c2ccccc2C(=O)c2c1nc1n2CCCC1	16.0	3.1
CC1=CC(C)C2C(=O)N(CCC[N+](C)(C)C)C(=O)C2C1 (stereo not drawn)	-27.0	.
O=C(NCc1cccc(Br)c1)C1CCCN(c2nnc(N3CCCC3=O)s2)C1 (stereo not drawn)	29.0	.
CN(C)C(=O)Oc1cccc([N+](C)(C)C)c1	.	-3.0&2.8
O=C1NC(c2cccc([N+](=O)[O-])c2)Nc2ccccc21 (stereo not drawn)	.	-0.2
CC(=O)OCC12COC(C)C(C1)C(C)=CC2C (stereo not drawn)	5.0	-3.4
CC(=O)N1Cc2ccccc2CC1C(=O)O (stereo not drawn)	-25.0	-1.5
O=C(O)c1ccc(OCc2occc2C(=O)O)cc1	0.0	-0.3
O=C1CC(c2ccc(S(=O)(=O)NCCc3ccccc3)cc2)CN1 (stereo not drawn)	4.0	.
NC(=O)C1CC(=O)N(c2ccc(OCC(=O)Nc3ccccc3)cc2)C1 (stereo not drawn)	2.0	.

# Screens as filed in PubChem BioAssay.

# Some of the compounds tested; rates above refer to the full screens.
